Screening data from PubChem BioAssay.
miR-21 FLuc: raises the signal of a miR-21 reporter; HeLa miR-21 FLuc reporter, luciferase, 48 h; Potency, µM (highest dose often 38.3 µM), for inactives: at the top dose reporter change, positive = more light; 340,000 tested, under 10 active; AID 2288; active = well fitted rising curve with a large enough effect; inconclusive = small, poorly fitted or top-dose-only effect; inactive = no such curve, though single readings can be large or run the other way;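 note: % of control where 0% means no effect; miR-21 action dims this reporter so a rising signal means less miR-21 action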
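HeLa cells endogenously expressing miR-21, stably carrying CMV-driven firefly luciferase with a downstream miR-21 binding site, 2000 cells/well. Titrations up to approximately 40 uM, 48 hours; luciferase luminescence read.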
Rango dissoc inh: inhibition of RanGTP-driven Rango-importin beta dissociation; Biochemical FRET Rango-importin beta, RanGTP-induced dissociation; Potency, µM (doses to about 46.1 µM), for inactives: at the top dose activity change, negative = inhibition; 0.071% of 340,000 active; AID 540253; active means falling FRET ratio curve, often poorly fitted, with flat reads before Ran was added; inconclusive means other falling curves, or compound fluorescence or quenching; inactive means flat or rising ratio curve;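 note: potency is the fitted concentration of half-maximal effect; % of control where 0% means no effect; nearly all actives have a fitted effect of over 45% in size; -100% = wells without RanGTP and RCC1; the record marks most hits as doubtful in a second field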
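Two FRET readings bracket the reaction: one 5 min after compound meets Rango–importin beta, another 45 min after RanGTP-RCC1 (0.6 uM Ran, 0.2 uM RCC1, 2 mM GTP) is added. Only the second defines inhibition.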
GLA inh pH 4.5: inhibitors of human alpha-galactosidase A at pH 4.5. purified enzyme, 4-MU-alpha-Gal fluorescence, pH 4.5. activity change, negative = inhibition, % at 105 µM. 230,000 tested, under 10 active. AID 1467; inconclusive = small, poorly fitted or top-dose-only inhibition, or a rising curve; inactive = flat fitted curve, though single readings scatter; no compound was filed as active;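 note: 0% = full activity with enzyme and -100% = basal without enzyme; dose as in the result columns while the protocol names 77 µM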
Rango-impB inh: inhibitors of Rango-importin beta complex formation | Q14974 | Potency, µM (titrated, usually from 92.2 µM), without a hit: top-dose inhibition of complex formation | 0.031% of 340,000 active | Rango CFP/YFP FRET sensor + importin beta, 45 min; active = rising FRET ratio curve, often small or poorly fitted; inconclusive = mostly compound fluorescence or quenching in the first reads; inactive = flat curves in all reads;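 note: potency is the fitted concentration of half-maximal effect; 0% = DMSO wells and 100% = buffer wells lacking importin beta; nearly all actives have a fitted effect of over 15% in size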
Target sequence (Q14974 whole entry, looked up): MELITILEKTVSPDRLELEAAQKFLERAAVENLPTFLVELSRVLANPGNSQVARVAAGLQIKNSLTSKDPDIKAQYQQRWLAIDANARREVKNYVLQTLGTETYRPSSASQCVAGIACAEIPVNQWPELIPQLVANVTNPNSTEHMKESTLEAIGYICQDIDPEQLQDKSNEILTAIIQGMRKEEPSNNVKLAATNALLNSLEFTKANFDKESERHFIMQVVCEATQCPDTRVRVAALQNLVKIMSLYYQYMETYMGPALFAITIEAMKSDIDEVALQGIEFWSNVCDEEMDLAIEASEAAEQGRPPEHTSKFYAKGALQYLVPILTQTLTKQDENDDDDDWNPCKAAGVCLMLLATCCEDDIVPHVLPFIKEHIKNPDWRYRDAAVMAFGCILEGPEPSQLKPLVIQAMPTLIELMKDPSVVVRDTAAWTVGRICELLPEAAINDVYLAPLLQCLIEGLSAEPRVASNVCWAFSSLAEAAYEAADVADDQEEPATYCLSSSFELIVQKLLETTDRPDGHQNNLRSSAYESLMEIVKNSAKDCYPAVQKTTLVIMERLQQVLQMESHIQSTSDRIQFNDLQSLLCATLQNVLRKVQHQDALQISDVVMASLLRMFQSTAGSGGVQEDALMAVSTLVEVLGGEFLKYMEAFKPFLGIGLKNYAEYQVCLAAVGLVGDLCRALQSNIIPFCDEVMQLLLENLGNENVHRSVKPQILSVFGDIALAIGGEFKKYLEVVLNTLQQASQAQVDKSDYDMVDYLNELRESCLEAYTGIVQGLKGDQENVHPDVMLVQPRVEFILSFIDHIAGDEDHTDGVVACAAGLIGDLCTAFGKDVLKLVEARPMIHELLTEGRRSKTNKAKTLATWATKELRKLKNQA
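FRET biosensor (snurportin 1 IBB flanked by EYFP and cerulean), 50 nM, with compound 5 min, then 0.125 microM importin beta in PBS, 1 mM DTT, 0.02% Tween-20, 0.1% BSA. CFP/YFP ratio read after 45 min at room temperature; pre-read flags interference.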
Active calls of the source: *; ? = inconclusive; . = no result given; & = joins results of further samples; [ ] = remark or other dose. Only part of the results is shown; rates above refer to the full screens.

SMILES	miR-21 FLuc	Rango dissoc inh	GLA inh pH 4.5	Rango-impB inh
CCCn1c(-c2ccc(C(=O)OC)cc2)nc2c1c(=O)[nH]c(=O)n2Cc1ccccc1	-6%	2%	.	1.5%
COc1ccccc1C(=O)NCC(=O)NC(C)c1ccc(-n2ccnc2)cc1 (stereo unspecified)	-6%	-5%	.	-1.8%
O=C(CCc1c[nH]c2ccccc12)N1CCCC1	-12%	4%	.	-0.5%
O=C1c2oc3ccc(F)cc3c(=O)c2C(c2ccncc2)N1CCN1CCOCC1 (stereo unspecified)	1%	.	-2	.
Cc1ccc(CCNC(=O)Cn2ncc3c([nH]c4ccccc43)c2=O)cc1	1%&0%	8%	.	2.1%
O=C(Nc1ccncc1)c1cn(-c2ccccc2)nc1-c1cccs1	-8%	14%	-1	0.6%
COC(CN(C)C(C(=O)NC1CCCCC1)c1ccccc1)OC (stereo unspecified)	1%	10%	4	-1.5%
COc1cc(NC(=O)c2cc(OC)c(OC)c(OC)c2)cc(-n2cnnn2)c1	-1%	14%	.	-4.6%
Cc1nn(Cc2noc(C(=O)NCc3ccc4c(c3)OCO4)n2)c(C)c1Br	-1%	-5%	.	-0.9%
Cc1c(C(=O)NCCCN2CCOCC2)sc2ncnc(N3CCN(c4ccccc4)CC3)c12	11%	5%	-7	0.6%
CCc1ccccc1NC(=O)N[C@@H](C)C(=O)OC	0%	7%	7	-0.8%
CCCCn1c(N)c(N(CCOC)C(=O)CN2C(=O)C3CCCCC3C2=O)c(=O)[nH]c1=O (stereo unspecified)	.	6%	.	-2.5%
COc1ccc(-c2csc(N)n2)cc1F	-60%	-15%	2	0.2%
Cc1ccccc1-n1ncc2c([N+](=O)[O-])cc([N+](=O)[O-])cc21	12%	-6%	-7	0.4%
CCCCc1ccc(CC(=O)Nc2cc(S(=O)(=O)N3CCOCC3)ccc2O)cc1	.	-1%	.	7.0%
CC(=O)N1c2ccccc2C(=O)OC1c1cccnc1 (stereo unspecified)	-3%	-8%	2	3.7%
O=C(N/C(=C\c1ccc(Br)cc1)C(=O)N1CCCC1)c1cccs1	0%	-2%	-12[21.1 µM]	-2.0%
CCOC(=O)CSc1nnc(CNc2ccc(Cl)cc2)n1Cc1ccccc1	1%	10%	-12	1.8%
COc1cccc(CNC(=O)CCC2CCCN(C(=O)c3cccc(Cl)c3)C2)c1 (stereo unspecified)	3%	11%	-11	0.1%
CCN(CC)CCCN(Cc1cc2cc3c(cc2[nH]c1=O)OCCO3)C(=O)Nc1ccccc1	-16%	7%	21	3.6%
O=C(CCSc1ccccc1)N1CCCC1	-49%	8%	-2	-2.9%
O=C(c1ccc2c(c1)OCO2)C1CCCN(Cc2cc(F)ccc2-n2cccn2)C1 (stereo unspecified)	-1%	18%	-2	3.6%
NC(=O)c1nn(-c2ccccc2)nc1NC(=O)CN1CCCC1	3%	12%	3	2.5%
O=C(/C=C/c1ccco1)N(Cc1ccc(Cl)cc1)C1CCS(=O)(=O)C1 (stereo unspecified)	-3%	1%	-7	1.4%
Cc1sc2nc(SCC(=O)NCc3ccco3)n(-c3ccccc3)c(=O)c2c1C	-10%	4%	0	-4.1%

Look-ups from the results shown:
Rango-impB inh result of CCCCc1ccc(CC(=O)Nc2cc(S(=O)(=O)N3CCOCC3)ccc2O)cc1 : 7.0%
Rango-impB inh result of CCOC(=O)CSc1nnc(CNc2ccc(Cl)cc2)n1Cc1ccccc1 : 1.8%

2 entries drawn at random from the list so far:
SMILES	miR-21 FLuc	Rango dissoc inh	GLA inh pH 4.5	Rango-impB inh
CCCCn1c(N)c(N(CCOC)C(=O)CN2C(=O)C3CCCCC3C2=O)c(=O)[nH]c1=O (stereo unspecified)	.	6%	.	-2.5%
Cc1ccccc1-n1ncc2c([N+](=O)[O-])cc([N+](=O)[O-])cc21	12%	-6%	-7	0.4%

Going on with the list.
SMILES	miR-21 FLuc	Rango dissoc inh	GLA inh pH 4.5	Rango-impB inh
O=C(N/N=C\c1cn[nH]c1-c1ccccc1)c1cccnc1	6%	0%	13	-2.0%
CC1=C(C(=O)O)N2C(=O)C(NC(=O)c3nn(C)cc3Cl)C2SC1 (stereo unspecified)	2%	8%	-1	3.6%
CCc1cc(=O)oc2c(CN3CCCC3)c(O)c(Cl)cc12	-5%	?	?	?
O=C(Cn1c(=O)n(Cc2ccco2)c(=O)c2ccccc21)NCC1CCCO1 (stereo unspecified)	-3%	1%	-2	-0.2%
Cc1ccc(S(=O)(=O)NC(C)C(=O)N2CCOCCOCCOCCOCC2)cc1 (stereo unspecified)	1%	20%	.	-0.3%
Cc1ccc(NC(=O)Cn2c(O)c(N=NC(=O)c3cc([N+](=O)[O-])ccc3O)c3ccccc32)cc1	-21%	.	-6	.
CCOC(=O)C1CCN(c2c(NCc3ccc(C(=O)Nc4ccc(C)cc4)cc3)c(=O)c2=O)CC1	-5%	30%	-6	0.0%
CC(OC(=O)CN1C(=O)NC(C)(C)C1=O)C(=O)c1ccccc1 (stereo unspecified)	4%	-9%	1	0.1%
COc1ccc(F)cc1S(=O)(=O)N1CC(C)CC(C)C1 (stereo unspecified)	-2%	2%	6	1.1%
O=C(CSc1nnc(Cc2ccccc2)n1-c1ccccc1)NNC(=O)Cc1ccccc1	-5%	1%	5	-5.8%
COc1ccc(-c2c(O)c(C#N)c(-c3ccccc3)n(-c3ccc(OC)cc3)c2=O)cc1	-5%	-1%	-3	-2.1%
CCn1c(=O)n(-c2ccc(Cl)cc2)c(=O)c2c3c(sc21)COC(C)(C)C3	0%	3%	-2	-0.8%
CCCCc1nnc(SCCSc2nnc(CCCC)n2N)n1N	-3%	4%	1	-0.8%
CCN1C(=O)[C@H]2[C@@H](c3ccc(C)cc3)N3C(=O)N(c4cccc(F)c4)C(=O)[C@@]3(CC)[C@H]2C1=O	-12%	15%	.	0.6%
Cn1c(=O)c2c(nc(NCCNC(=O)c3ccco3)n2Cc2ccc(Cl)cc2Cl)n(C)c1=O	-5%	-10%	1	6.6%
C[C@@H]1CC2OC(=O)[C@@]3(C)C(=O)CC[C@@](C)(C23)[C@@]1(O)CCc1ccoc1 (stereo partly specified)	-3%	3%	.	-0.3%
Oc1ccc(/C=N/N(Cc2ccccc2)c2ccccc2)cc1	8%	-19%	-10	0.2%
Cc1nc2nc(-c3ccco3)[nH]n2c(=O)c1Cc1ccccc1	-9%	5%	0	1.2%
CCOc1ccc2c(c1)c(N=NC(N)=S)c(O)n2C	-10%	10%	-5	4.6%
Cc1cccc(Nc2cc(=O)[nH]c(=O)[nH]2)c1	1%	1%	7	0.8%
O=C(COC(=O)C1CC2CCCC(C1)C2=O)NC1CCCCC1 (stereo unspecified)	.	1%	.	-2.8%
CCOc1ccc(NS(=O)(=O)c2cc3c4c(c2)CCN4C(=O)CC3)cc1	.	0%	.	0.2%
O=C(Nc1ccc(-c2nc3cc(Cl)ccc3o2)cc1)C1CCCO1 (stereo unspecified)	-70%	-5%	-3	2.8%
O=C(NCc1ccc(Cl)cc1)c1ccc(OCC2CCCO2)cc1 (stereo unspecified)	-20%	-25%	-5	-5.1%
COc1cccc(Nc2nc(C)nc3c2oc2ccccc23)c1	-5%	?	.	6.8%

Compounds shown so far containing a thiophene ring, fused or not (5):
SMILES	miR-21 FLuc	Rango dissoc inh	GLA inh pH 4.5	Rango-impB inh
O=C(Nc1ccncc1)c1cn(-c2ccccc2)nc1-c1cccs1	-8%	14%	-1	0.6%
Cc1c(C(=O)NCCCN2CCOCC2)sc2ncnc(N3CCN(c4ccccc4)CC3)c12	11%	5%	-7	0.6%
O=C(N/C(=C\c1ccc(Br)cc1)C(=O)N1CCCC1)c1cccs1	0%	-2%	-12[21.1 µM]	-2.0%
Cc1sc2nc(SCC(=O)NCc3ccco3)n(-c3ccccc3)c(=O)c2c1C	-10%	4%	0	-4.1%
CCn1c(=O)n(-c2ccc(Cl)cc2)c(=O)c2c3c(sc21)COC(C)(C)C3	0%	3%	-2	-0.8%

2 of these compounds, set out differently:
| compound | miR-21 FLuc | Rango dissoc inh | GLA inh pH 4.5 | Rango-impB inh |
| --- | --- | --- | --- | --- |
| Cc1ccc(NC(=O)Cn2c(O)c(N=NC(=O)c3cc([N+](=O)[O-])ccc3O)c3ccccc32)cc1 | -21% | . | -6 | . |
| O=C(NCc1ccc(Cl)cc1)c1ccc(OCC2CCCO2)cc1 (stereo unspecified) | -20% | -25% | -5 | -5.1% |

(next part)
SMILES	miR-21 FLuc	Rango dissoc inh	GLA inh pH 4.5	Rango-impB inh
O=C1CC(c2cccs2)Cc2nc(NCC3CCCO3)ncc21 (stereo unspecified)	-16%	8%	-7	1.5%
O=C(Cn1cccc1)Nc1ccc(OC(F)(F)F)cc1	-19%	-3%	-2	-5.4%
N#C/C(=C(/O)c1ccc(-c2cccc([N+](=O)[O-])c2)o1)c1nc2ccccc2s1	-10%	-18%	-9	?
O=S(=O)(/N=C(/Nc1nc2ccccc2s1)c1ccccc1)c1ccc(F)cc1	.	?	.	-0.8%
CC(C)(C)C(CCl)C(=O)NN=C(c1ccccc1)c1ccccc1 (stereo unspecified)	.	0%	.	2.2%
Cc1cc(C)n(CCc2nc(-c3ccco3)cs2)n1	-5%	10%	7	-2.0%
C/C(=N\NC(=O)C(O)(c1ccccc1)c1ccccc1)c1ccc(NC(=O)CCCC(=O)O)cc1	-2%	-7%	.	-1.6%
O=C(CSc1nnc(C2CC2)n1Cc1ccco1)NCC(F)(F)F	1%	5%	5	0.1%
O=C(c1cccc(C(F)(F)F)c1)N1CCC(O)(CS(=O)(=O)Cc2ccccc2)CC1	2%	2%	-9	0.6%
Nc1ccc(Nc2ccccc2)c(S(=O)(=O)O)c1	-1%	-6%	5	-1.4%
CCOC(=O)c1ccc(N/C=C2\CCCCC2=O)cc1	-44%	6%	-6	-3.8%
COc1ccccc1OCc1ccc(C(=O)N2CCOCC2)o1	-13%	4%	7	-0.5%
COC(=O)CCCNC(=O)c1ccc2nc(Cc3ccc(OC)cc3)oc2c1	-16%	-6%	.	-0.8%
COc1ccc(Nc2ccc([N+](=O)[O-])cn2)cc1	-51%	-15%	.	1.2%
Cc1ccc(-c2noc(CCC(=O)NCC3CCCO3)n2)cc1 (stereo unspecified)	-2%	2%	9	4.4%
O=C(CNc1ccc(F)cc1)N/N=C/c1c(O)ccc2ccccc12	28%	?	.	?
COc1ccc(CN(C)C(=O)c2cccc(Oc3ccccc3)c2)c(OC)c1OC	29%	-6%	.	-0.7%
Cc1ccc(NC(=O)C(C)OC(=O)CCN=C2NS(=O)(=O)c3ccccc32)cc1 (stereo unspecified)	.	8%	.	3.6%
COCCOCCn1cnc2ccccc21	-3%	-2%	4	-1.8%
CN(C(=O)COC(=O)c1ccc2c(c1)OCO2)c1c(N)n(Cc2ccccc2)c(=O)[nH]c1=O	.	3%	.	5.1%
Cc1cccc(-n2c(CNC(=O)c3ccccc3)nnc2SCC(=O)Nc2nccs2)c1	3%	-6%	7	-0.4%
CCN(CC)c1ccc(/C=C2\CCC(/C=C(\C#N)C(=O)Nc3ccccc3F)=C2N2CCOCC2)cc1	1%	2%	3	?
O=C(CSc1nnc(-c2n[nH]c3ccccc23)n1-c1ccccc1)Nc1ccccc1Cl	19%	13%	-4	-3.0%
Cc1cc(NC(=O)CSc2nc(=O)cc(N)n2-c2ccc(Cl)cc2)no1	-3%	0%	-3	-2.4%
c1ccc(NC2=NCCN2CC2CCC2)cc1	.	-22%	.	-1.5%
Additional compounds.
SMILES	miR-21 FLuc	Rango dissoc inh	GLA inh pH 4.5	Rango-impB inh
CCc1cc2c(SCC(=O)O)ncnc2s1	5%	7%	1	-3.9%
CCOc1ccc2nc(SCC(=O)NCc3ccc4c(c3)OCO4)[nH]c2c1	3%	5%	-3	4.8%
Cc1cc(C(=O)Nc2ccccc2N2CCCCC2)no1	7%	5%	-3	2.9%
CCOC(=O)C1=C(C)N=c2s/c(=C\C(=O)OC)c(=O)n2C1c1ccc(OC)cc1 (stereo unspecified)	-1%	-18%	-9	?
COc1ccc2nc(SCCN(C)C)[nH]c2c1	-9%	2%	7	-4.5%
COc1ccccc1-c1nc(S(=O)(=O)c2ccccc2)c(N2CCCCC2)o1	-5%	-17%	.	0.2%
COC(=O)c1[nH]c2cc(OC)c(OC)cc2c1NC(=O)CN1C[C@H]2C[C@@H](C1)c1cccc(=O)n1C2	.	-2%	.	1.1%
